# Screening results as filed in PubChem BioAssay.
# Kir21 inh – blocks the mouse Kir2.1 inward-rectifier potassium channel | actives 0.85% (n = 310,000) | P35561 | HEK293-Kir2.1, FluxOR thallium flux fluorescence; stronger effect = lower value | AID 1672 | B-score at 10 µM;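 active means fluorescence ratio B-score at or below minus 3 SD of library scores, with starting-brightness B-score within 2 SD, cut at about -4.2 in these data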;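 further: channel flux triggered by added potassium and thallium sulfate stimulus; B-score of peak minus minimum fluorescence over baseline after thallium stimulus; more negative B-score means stronger Kir2.1 block with less thallium influx; some compounds called inactive have numbers as strong as hits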
# Target sequence (P35561 whole entry, looked up): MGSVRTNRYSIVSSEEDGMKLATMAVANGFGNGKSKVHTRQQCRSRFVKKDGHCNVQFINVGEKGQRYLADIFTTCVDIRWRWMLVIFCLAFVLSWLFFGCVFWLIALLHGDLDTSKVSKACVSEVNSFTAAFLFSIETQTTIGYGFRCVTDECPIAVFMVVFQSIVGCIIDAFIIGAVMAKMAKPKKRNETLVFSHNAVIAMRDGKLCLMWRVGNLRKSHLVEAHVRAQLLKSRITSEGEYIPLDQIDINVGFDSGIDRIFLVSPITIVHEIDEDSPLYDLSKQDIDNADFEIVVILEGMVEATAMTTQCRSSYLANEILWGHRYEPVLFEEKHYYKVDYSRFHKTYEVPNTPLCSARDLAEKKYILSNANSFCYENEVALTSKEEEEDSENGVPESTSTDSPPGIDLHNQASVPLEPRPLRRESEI
# Starred values were filed as active, the others as inactive. Some of the compounds tested; most or all hits stand in other tables.
SMILES,Kir21 inh
C=CCNC(=S)Nc1ccc(N2CCOCC2)c(S(=O)(=O)Nc2ccccc2Cl)c1,-1.85
O=C(CS(=O)Cc1ccccc1Cl)Nc1ccccc1Cl (stereo unspecified),-1.15
CCOC(=O)CCCNC(=O)COC(=O)/C=C/c1ccc2c(c1)OCO2,0.84
COC(=O)c1cc(NC(=O)CN(C)Cc2ccccc2)cc(C(=O)OC)c1,1.54
CCOc1ccc(Nc2c3c(nc4ncnn24)CC(C)CC3)cc1 (stereo unspecified),-0.68
Nc1nc(SCc2ccccc2)n[nH]1,-0.92
CC(C)Sc1cc(N2CCCC2)nc(-c2ccc(F)cc2)n1,-0.01
CCc1cccc(C)c1NC(=S)N1CCCC1C(=O)O (stereo unspecified),-0.03
CN(C(=O)Cn1nnc(-c2cccc(C(F)(F)F)c2)n1)C1CCCCC1,1.14
Cc1ccc(C)c(CS(=O)(=O)c2cn(CC(=O)N3CCCCC3)c3ccccc23)c1,0.86
COc1ccccc1NC(=O)COc1ccc(-c2nn(C)c(=O)c3ccccc23)cc1,-1.62
COc1cc(C(=O)Nc2sc3c(c2C(=O)O)CCC3)cc(OC)c1OC,-0.13
Clc1cccc(NCc2cn3cccnc3n2)c1,1.76
CCOc1ccc(N(Cc2cc3ccc(C)cc3[nH]c2=O)S(C)(=O)=O)cc1,-0.05
COc1cccc(C(=O)NCC(=O)OCC(=O)C(C)(C)C)c1,-1.62
S=C(NC1CCCC1)N1CCN(c2ccccn2)CC1,0.26
COC(=O)CSc1nnc(CNC(=O)c2cc(OC)cc(OC)c2)n1-c1ccc(F)cc1,-0.08
Cc1cc(NC(=O)CSc2nnnn2-c2ccccc2)no1,-0.02
Cc1cccc(C(=O)NNC(=O)c2ccc(S(=O)(=O)N3CCOCC3)cc2)c1,-0.7
CCCCCN(C(=O)CCC(=O)OCC(=O)N1CCC(C)CC1)c1c(N)n(CCCC)c(=O)[nH]c1=O,0.07
COc1ccc(NC(=O)Cn2c(=O)n(-c3ccccc3)c(=O)c3sccc32)c(OC)c1,0.01
Cc1cc([N+](=O)[O-])nn1CC(=O)NCc1cccs1,1.29
O=C(CCCC(=O)OCC(Cl)=C(Cl)Cl)Nc1cccc(F)c1,0.23
CCc1c(C)nc2ncnn2c1N1CCCC(C(=O)Nc2cc(F)ccc2C)C1 (stereo unspecified),0.28
COc1ccc(NC(=S)Nc2ncccc2C)cc1OC,-0.17
CCc1ccc(N(CC(=O)NCC2CCCO2)C(=O)CCC(=O)Nc2nccs2)cc1 (stereo unspecified),0.04
Cc1cc(C)c(/C=N/NC(=O)c2nnn(-c3nonc3N)c2COc2ccc(F)cc2)c(C)c1,-0.06
Cn1ncc(Cl)c1C(=O)Nc1sc2c(c1C(N)=O)CCC2,-0.08
CC(=O)c1ccc(NC(=O)CCc2nnc3ccc(N4CCCC4)nn23)cc1,1.72
Cc1ccc(CNC(=O)Cn2nnc(C(=O)Nc3cccc(C)c3C)c2N)cc1,0.55

# Entries above that contain an NH in an aromatic ring:
SMILES,Kir21 inh
Nc1nc(SCc2ccccc2)n[nH]1,-0.92
CCOc1ccc(N(Cc2cc3ccc(C)cc3[nH]c2=O)S(C)(=O)=O)cc1,-0.05
CCCCCN(C(=O)CCC(=O)OCC(=O)N1CCC(C)CC1)c1c(N)n(CCCC)c(=O)[nH]c1=O,0.07

# The listing continues:
SMILES,Kir21 inh
O=C(CCc1nnc(Cc2cccc(C(F)(F)F)c2)o1)NC1CC1,0.01
CCOC(=O)c1noc(C)c1C(=O)Nc1nc(C)cc(C)n1,2.03
COc1cccc(CN2CCC(n3nccc3NC(=O)CCCc3ccccc3)CC2)c1O,-0.98
CC1CCCCN1S(=O)(=O)c1cn(C)c(=O)n(C)c1=O (stereo unspecified),-0.01
Cc1ccc(C(=O)CCC(=O)Nc2cccnc2)cc1C,-0.48
Cc1cc(C)nc(SCC(=O)OCC(=O)N(C)c2c(N)n(Cc3ccccc3)c(=O)[nH]c2=O)n1,0.05
Cc1cc(S(=O)(=O)N2CCCCC2CCNC(=O)C(=O)NC2CC2)ccc1F (stereo unspecified),-0.03
CN(C)S(=O)(=O)c1cc(NC(=O)CN2C(=O)NC3(CCCc4ccccc43)C2=O)ccc1Cl (stereo unspecified),0.86
Cc1ccc(C2(CC(=O)O)CCOC(C)(C)C2)cc1 (stereo unspecified),0.71
CCS(=O)CCSc1nc2ccccc2s1 (stereo unspecified),0.65
CCCC1C(c2ccccc2)C(C#N)(C#N)C2(C#N)CC1(N)NC2=O (stereo unspecified),-0.03
Cc1ccc(N(C(=O)Cc2cccs2)C2C=CS(=O)(=O)C2)cc1Cl (stereo unspecified),0.55
Cc1ccc(NC(=O)NNC(=O)COc2ccc([N+](=O)[O-])cc2)cc1C,-1.14
COCCNC(=O)C(=O)NCC1OCCN1C(=O)c1ccc(Cl)cc1 (stereo unspecified),1.55
Cc1cn2c(N)c(/C=C3\C=Nc4ccccc43)c(=O)nc2s1,-0.53
CCN(CC)CCN1C(=O)C(O)=C(C(=O)c2sc(C)nc2C)C1c1cccnc1 (stereo unspecified),0.04
COc1ccc(OC)c(NC(=O)CSc2nc3c(c(=O)n(C)c(=O)n3C)n2C)c1,-0.85
Cc1ccc(NC(=O)CSc2nc(-c3ccco3)cc(C(F)(F)F)n2)cc1C,-0.03
CNC(=O)c1csc(Cc2c(Cl)sc3ccc(Cl)cc23)n1,-0.15
CCOC(=O)C1=C(C)NC(=O)NC1c1c(OC)ccc2ccccc12 (stereo unspecified),0.05
CC(C)C(CCN1C(=O)CCC1=O)C1CCOC(C)(C)C1 (stereo unspecified),0.16
CCCNCc1cc(Cl)c(OCC)c(Cl)c1,0.73
CCc1cccc(CC)c1NC(=O)NC1CCCCC1,-0.44
COCCNC(=O)CCCn1c(=O)c2ccccc2n(Cc2cccc([N+](=O)[O-])c2)c1=O,-0.93
O=C(NCc1cccnc1)c1ccc(NC(=O)c2ccc([N+](=O)[O-])cc2)cc1,0.2
O=C(Nc1ccc(Cl)cc1)/C(=C/c1cccc(O)c1)c1nc2ccccc2s1,0.64
CC(C)c1nnc(NC(=O)c2c(O)c3cccc4c3n(c2=O)CCC4)s1,0.35
Cc1cc(C)cc(N2C(=O)C3CC=CCC3C2=O)c1 (stereo unspecified),0.21
N#CC12CCCCC1CC1CCCCC1(C#N)N2Cc1cccnc1 (stereo unspecified),-1.25
COc1ccc(S(=O)(=O)N2CCOCC2)cc1NC(=O)c1ccc(-n2nc(C)cc2C)cc1,0

# A portion of the results above, for reference:
SMILES,Kir21 inh
Cc1cc(C)cc(N2C(=O)C3CC=CCC3C2=O)c1 (stereo unspecified),0.21
N#CC12CCCCC1CC1CCCCC1(C#N)N2Cc1cccnc1 (stereo unspecified),-1.25
COc1ccc(S(=O)(=O)N2CCOCC2)cc1NC(=O)c1ccc(-n2nc(C)cc2C)cc1,0

# Returning to the listing; the 5 compounds before the break are reprinted first.
SMILES,Kir21 inh
O=C(Nc1ccc(Cl)cc1)/C(=C/c1cccc(O)c1)c1nc2ccccc2s1,0.64
CC(C)c1nnc(NC(=O)c2c(O)c3cccc4c3n(c2=O)CCC4)s1,0.35
Cc1cc(C)cc(N2C(=O)C3CC=CCC3C2=O)c1 (stereo unspecified),0.21
N#CC12CCCCC1CC1CCCCC1(C#N)N2Cc1cccnc1 (stereo unspecified),-1.25
COc1ccc(S(=O)(=O)N2CCOCC2)cc1NC(=O)c1ccc(-n2nc(C)cc2C)cc1,0
CCOC(=O)c1c(S(=O)(=O)NCC(=O)N2CCN(c3cccc(OC)c3)CC2)c(C)n(C)c1C,0.31
Cc1ccccc1N1C(S)=C(C#N)C(=O)NC12CCCCC2,1.02
CCc1nc(NCCCN2CCOCC2)c2oc3ccccc3c2n1,-0.45
CCOc1ccc(/C=C/C(=O)c2c(O)c3ccccc3oc2=O)cc1,-2.44
COCCNC(=O)C(c1ccc(C)o1)N(C(=O)Cn1nnc2ccccc21)c1ccccc1 (stereo unspecified),-0.5
COc1ccc(/C=C/C(=O)OCc2nc3ccccc3c(=O)[nH]2)c(OC)c1,-1.26
Cc1ccc(C(=O)n2c(N)nc3ccccc32)cc1,0.8
O=C(CSc1nnc(-c2ccco2)o1)NC1CCCCCC1,-0.68
Cc1ccc(SCCC(=O)Nc2ccccc2C(=O)NC(C)C)cc1,0.39
CC1=CC(C)(C)N(C(=O)CSc2nnc(-c3ccccc3)o2)c2ccc(C)cc21,-0.96
COc1ccc(NC(=S)NC(NC(=O)c2ccc(Cl)cc2Cl)C(Cl)(Cl)Cl)c([N+](=O)[O-])c1 (stereo unspecified),1.13
O=C(CSc1nnc(CNC(=O)c2cccs2)o1)c1ccccc1,0.22
CCC(Sc1nc2ccccc2c2nc3ccccc3n12)C(=O)NCc1ccco1 (stereo unspecified),1.11
COc1ccccc1CNC(=O)[C@H](C)N1C(=O)N2CCc3c([nH]c4ccccc34)[C@@]2(C)C1=O,0.5
COc1cc(OC)cc(C(=O)Oc2ccc(/C=N/Nc3nc4ccccc4s3)cc2OC)c1,0.1
COc1ccc(C)cc1NC(=O)c1sc2nc(C)nc(N3CCOCC3)c2c1C,0.83
COC(=O)c1ccc(C2Nc3cccc4cccc(c34)N2)cc1,0.36
O=C(/C=C/c1ccc(Br)o1)OCc1ccccc1,-0.12
CC1(C)CC(=O)c2cc(OCC(=O)N3CCCCCC3)ccc2O1,0.06
O=C(CCc1nc2ccccc2c(=O)[nH]1)N1CCN(c2ccc(F)cc2)CC1,-0.01
O=C(N/N=C/C=C/c1ccccc1)c1cccs1,-1.57
O=[N+]([O-])c1ccc(-n2cccn2)c(-c2nn[nH]n2)c1,0.78
Cc1ccc(S(=O)(=O)CCC(=O)NCc2ccc(Cl)cc2)cc1,0.15
O=C(C1=C[C@@H](c2ccc(Br)cc2)C[C@@H](OCc2ccc(CO)cc2)O1)N1CCOCC1,0.53
Cc1ccc(OCCC(=O)OCC(=O)N2c3ccccc3NC(=O)C2(C)C)cc1,0
O=C(CSc1nc2ncccc2[nH]1)Nc1c(F)cc(F)cc1Br,-0.78
Cc1ccc(Cn2nc(C)c(NC(=O)C3(C)CC3(Br)Br)c2C)cc1 (stereo unspecified),1.29
COc1ccccc1-n1c(SCC(=O)N2CCOCC2)nc2cccnc21,-1.56
CCCN1C(=O)c2cc(C(=O)Nc3ccccc3CC)ccc2C1O (stereo unspecified),-1.51
CCOC(=O)C1CCCN(c2c(NCC3CCCO3)c(=O)c2=O)C1 (stereo unspecified),0.45
Cc1ccc(Cc2nnc(SCC(=O)Nc3ccccc3)[nH]c2=O)cc1,-1.97
COC(=O)c1ccc(CSc2nncn2N)cc1,0.08
CC(C)Cc1nnc(NC(=O)CCC(=O)NC2CCCCCCC2)s1,0.17
CCCN1C(=O)c2ccccc2NC1c1ccc(OC)c(CSc2ccccn2)c1 (stereo unspecified),0.11
CCN(CC)c1ccc(/C=N/NS(=O)(=O)c2ccc(C)c([N+](=O)[O-])c2)cc1,1.56
N#C/C(=C\Nc1ccc2cn[nH]c2c1)c1nc(-c2ccccc2)cs1,0.05
Cc1nc2c(C)cccn2c1/C(O)=C1\C(=O)C(=O)N(CCN(C)C)C1c1ccco1 (stereo unspecified),1.19
CC1(C)Oc2ccc(NC(=O)c3ccco3)cc2O1,0.16
CCN(CC)C(=O)Oc1cc(=O)n(C)c2ccccc12,-0.48
O=C(CNC(=O)c1cccc(OC(F)F)c1)OCC(=O)c1ccccc1,-0.38
CCOC(=O)c1c(C)c(C(=O)Nc2ccc3c(c2)OCCO3)c(C)n1C,-0.79
Cn1c(=O)c([N+](=O)[O-])c(NCc2ccccc2)c2ccccc21,-0.45
COc1ccc(C)cc1NC(=O)c1ccc(NC(=O)CC2SC(N3CCCC3)=NC2=O)cc1 (stereo unspecified),1.95
COc1ccc(OC)c([N+](=O)[O-])c1C(N)=O,-0.61
O=C(N1CCOCC1)N1CCN(S(=O)(=O)c2ccc(Cl)cc2)CC1,-0.02
Cc1cc(OCC(O)CN(CCO)CCO)ccc1Cl (stereo unspecified),0.54
C[C@@H]1CC=C[C@H]2[C@H]1C(=O)N(Cc1ccccc1)[C@H]2c1ccc(F)c(-c2ccc(N(C)C)cc2)c1,0.2
COc1cc(NS(=O)(=O)c2ccc(NC(=O)CSC3=NCCS3)cc2)nc(OC)n1,-0.02
COc1ccc(OCCC(=O)OCC(=O)Nc2cccc(Br)c2)cc1,0.12
CCC(c1nnnn1C1CCCC1)N1CCN(c2ccccc2)CC1 (stereo unspecified),1.31
Cc1ccc(CNC(=O)C2CNc3cc(C)ccc3O2)cc1 (stereo unspecified),-0.4
Cc1cc(C)c(C#N)c(SCCS(=O)(=O)Cc2ccc(Cl)cc2)n1,-0.35
CN(N)C(=S)Nc1ccc(F)cc1,0.38
CCOC(=O)c1ccc(Nc2ncnc3c2cnn3C)cc1,-1.22
O=S(=O)(NCCn1ccc2ccccc21)c1ccccc1,-0.56
Cc1noc(C)c1CSc1ccc2ccccc2n1,-1.94
Cc1ccc(S(=O)(=O)CC(=O)N2CCCCCC2)cc1,0.42
Cc1oc(=O)c(NC(=O)c2ccccc2)cc1C(C)O (stereo unspecified),1.6
CCN(CC)C(=O)C1CCN(S(=O)(=O)c2ccc(C3CNC(=O)C3)cc2)CC1 (stereo unspecified),0.07
CN(Cc1cc2ccccc2[nH]c1=O)C(=O)C1CCCCC1,-1.35
# Other compounds follow:
SMILES,Kir21 inh
CCOC(=O)c1cnn(CCOC(=O)c2ccccc2)c1NC(=O)c1ccccc1,-0.96
O=C(CSc1nnc2ccccn12)Nc1ccc2c(c1)OCCO2,-0.63
Cc1cc(=O)[nH]c(N/N=C/c2cc(C)n(-c3ccccc3)c2C)n1,0.24
CCC1CSC(Nc2ccc(C(=O)/C=C/c3ccc(OC)c(OC)c3)cc2)=N1 (stereo unspecified),0.15
CC1CCN(CC(=O)NCc2ccccc2)CC1,1.47
Cc1ccc2[nH]c(C)c(CCNC(=O)c3cc4cc([N+](=O)[O-])ccc4oc3=O)c2c1,2.42
CCn1c(NCc2cc(OC)ccc2OC)nc2ccccc21,-0.01
CCCCOc1ccc(NC(=O)Nc2nnc(C)s2)cc1,-0.06
CCOc1cc(S(=O)(=O)n2ccc(C)n2)ccc1Br,1.26
CCOC(=O)c1cnn(-c2nc(-c3ccc(C)cc3)cs2)c1C(F)(F)F,1.08
COC(=O)c1c(NC(=O)COC(=O)[C@@H](NS(=O)(=O)c2cccc(Cl)c2)C(C)C)sc2c1CCC2,1.07
